B2AR ag = beta2AR agonists driving receptor internalization, primary screen, cell-based, FAP fluorogen, flow cytometry; Beta-2 adrenergic receptor (Homo sapiens), P07550; Am2.2-beta2AR cells; reference of the scale not given here; response, % (concentration not given with the values); hit rate 0.43% among 340,000;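 active means response above a set limit, near 3 SD of response in nonfluorescent compounds, cut at about 42% in these data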;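 further: stock transfer was 100 nL into about 11 µL; a reference agonist was the positive control; negative values mostly stem from fluorescent compounds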
HNF4A DNA FP = change in binding of human HNF4A to DNA, primary screen, biochemical, fluorescence polarization, FITC-DNA; Hepatocyte nuclear factor 4-alpha (Homo sapiens), P41235; activity change, % at 10 µM; hit rate 0.3% among 360,000; 1 h; in the data active means activity change above about 30%, passing the limit was not always enough;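 further: controls were the assay level and a saturating level of protein; the project sought stronger binding though the title names inhibitors; some compounds called inactive have numbers as strong as hits; positive values seem to mean higher polarization but the record does not say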
UCH37 DUB inh = inhibitors of human UCH37 deubiquitinase, primary screen, biochemical, Ub-AMC cleavage, fluorescence. Ubiquitin carboxyl-terminal hydrolase isozyme L5 (Homo sapiens), Q9Y5K5. purified proteasome/UCH37. inhibition, % (no concentration beside the values). hit rate 0.33% among 330,000. AID 588478, 2011;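 active means mean of two replicates above 20%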;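 further: 0% = compound-free wells with enzyme and 100% = wells lacking proteasome; stock transfer was 100 nL into about 20 µL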
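System: Proteasome-associated human UCH37 deubiquitinase; Input: 0.15 nM proteasome in added enzyme buffer; Also added: Ub-AMC substrate from 1 µM stock; Incubation: 30 min compound-proteasome preincubation then 25 min substrate reaction, room temperature; Detection: fluorescence, ex 355 nm, em 460 nm; Read-out: % inhibition of Ub-AMC cleavage fluorescence; Benchmarks: no-proteasome and no-compound wells.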
Bfl-1 A1 inh = caspase 3/7 activation in MEF A1-2A-BIM cells, primary screen, A1 inhibitor project, cell-based, luminescence, HTS | Caspase-Glo 3/7 luminescence, 3 h; percent of clofoctol response, vehicle zero | caspase activation, % (test concentration not listed) | hit rate 0.066% among 330,000;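 active means over half of replicate activation scores above 10%, or exactly half above 10 with the replicate mean above 10; inconclusive means replicate mean below 10 yet half the replicates above 10; inactive means over half of replicates below 10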;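 further: wells of about 30 µL received 50 nL stock; many hits fall short of the cut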
E coli growth = E. coli growth inhibition, primary screen, OD600 | Escherichia coli growth, 23 h; stronger effect = lower value | AID 1053175, 2014 | OD600 absorbance (test concentration not listed) | hit rate 0.21% among 330,000;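 active means OD600 absorbance below the run mean of sample wells minus 3.6 SD, in any replicate, cut at about 0.56 in these data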;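 further: stock transfer was 300 nL into about 60 µL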
LANA-H2B inh = blockers of LANA interaction with H2A/H2B – biochemical, FP readout, HTS, primary screen; inhibition, % (test concentration not listed); AID 2629, 2010; Protein LANA1 (Human herpesvirus 8 type P (isolate GK18)), Q9QR71; cell-free LANA-H2A/H2B peptide, fluorescence polarization; hit rate 0.6% among 320,000; in the data active means inhibition mostly above about 10%, no sharp cut-off; inactive means mostly below about 6.7%;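 further: stock transfer was 7.5 nL into about 10 µL; 0% = median of vehicle wells and 100% = median of positive control wells; one replicate is shown; the record names a cut of 25% in any replicate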
Target sequence (Q9QR71 whole entry, looked up): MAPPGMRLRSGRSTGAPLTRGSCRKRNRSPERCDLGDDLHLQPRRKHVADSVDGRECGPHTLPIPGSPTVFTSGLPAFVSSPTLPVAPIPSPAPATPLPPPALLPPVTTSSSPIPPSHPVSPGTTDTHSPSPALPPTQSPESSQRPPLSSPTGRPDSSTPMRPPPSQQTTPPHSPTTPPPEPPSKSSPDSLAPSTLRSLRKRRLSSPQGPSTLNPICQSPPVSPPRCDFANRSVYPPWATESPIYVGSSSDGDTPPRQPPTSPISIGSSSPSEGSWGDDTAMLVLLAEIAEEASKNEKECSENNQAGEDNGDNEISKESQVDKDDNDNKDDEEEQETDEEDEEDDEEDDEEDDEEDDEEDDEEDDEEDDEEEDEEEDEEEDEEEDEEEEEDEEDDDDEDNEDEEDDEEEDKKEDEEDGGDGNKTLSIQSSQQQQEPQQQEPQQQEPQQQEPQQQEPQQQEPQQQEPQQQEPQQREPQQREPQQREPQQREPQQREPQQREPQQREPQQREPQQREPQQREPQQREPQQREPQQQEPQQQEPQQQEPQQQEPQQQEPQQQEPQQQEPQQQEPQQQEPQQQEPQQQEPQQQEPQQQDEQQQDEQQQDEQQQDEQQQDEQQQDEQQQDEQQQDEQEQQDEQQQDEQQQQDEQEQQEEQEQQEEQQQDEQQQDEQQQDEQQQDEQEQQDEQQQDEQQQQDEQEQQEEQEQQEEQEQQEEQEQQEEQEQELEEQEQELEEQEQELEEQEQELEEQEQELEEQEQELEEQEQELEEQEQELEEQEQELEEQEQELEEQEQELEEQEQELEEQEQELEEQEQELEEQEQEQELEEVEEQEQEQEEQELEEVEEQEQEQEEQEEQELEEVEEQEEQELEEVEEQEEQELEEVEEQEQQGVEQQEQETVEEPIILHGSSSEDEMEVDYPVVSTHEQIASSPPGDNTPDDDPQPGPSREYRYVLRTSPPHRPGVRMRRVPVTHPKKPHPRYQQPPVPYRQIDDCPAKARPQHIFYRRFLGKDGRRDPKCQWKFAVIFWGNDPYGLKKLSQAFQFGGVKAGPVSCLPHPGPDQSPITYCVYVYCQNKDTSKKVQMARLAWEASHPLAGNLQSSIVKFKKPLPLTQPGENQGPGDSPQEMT
Vif TR-FRET = inhibitors of Vif binding to APOBEC3G peptide, primary screen, biochemical, TR-FRET, GST-Vif 1-94, biotin-A3G peptide, dose response retest (AID 1117319); TR-FRET GST-Vif / biotin-A3G peptide binding; higher % means a stronger effect; test concentration not given here; strong numbers were not always called active; inhibition, %; hits with a dose series show IC50 in µM; hit rate 0.57% among 260,000;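 active means above the screen mean plus three standard deviations and confirmed in dose response; inconclusive means results disagree or hit not tested in dose response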;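 further: Vif residues 1-94 fused to GST binding biotinylated APOBEC3G peptide 110-148; 0% = full assay without inhibitor and 100% = GST in place of GST-Vif; retest series ran down from 100 µM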
Numbers without * were called inactive; i = inactive; ? = inconclusive; . = not tested or not shown; & = joins results of further samples. Not a hit list; about 2.1% have a hit in one of these screens.

canonical_smiles	B2AR ag	HNF4A DNA FP	UCH37 DUB inh	Bfl-1 A1 inh	E coli growth	LANA-H2B inh	Vif TR-FRET
CC(=O)N/C(=C/c1ccccc1)C(=O)NCCO	3	0.2	2.9	0.2	0.68	-0.7	-2%
Cn1c(=O)[nH]c(=O)c2c1nc(NCCCn1ccnc1)n2Cc1cccc(Br)c1	-1	-3.4	4.6	-0.4	0.68	17*	6%
O=C(c1cc2cc(Cl)ccc2oc1=O)N1CCOCC1	0	-1.2	4.7	-0.2	0.75	-2.1	-2%
O=C(Cc1ccc(Br)cc1)NCCc1ccc(F)cc1	3	1.8	1.1	0.0	0.63	-4.8	-5%
NC(=O)c1ccccc1OCCOCCOCCOc1ccccc1C(N)=O	7	-2.7	3.5	-0.1	0.7	-9.5	1%
Clc1cccc(Cl)c1CSc1nnc(-c2ccncc2)s1	7	-4.4	2.0	-2.0	0.68	4.5	.
CC(O)[C@@]1(O)CC[C@H]2[C@@H]3CC[C@H]4C[C@@H](O)CC[C@]4(C)C3=CC[C@@]21C (stereo partly specified)	2	-1.7	1.2	-0.6	.	-0.4	.
O=C(CSc1nccn1-c1cccc(Cl)c1)NC1CCCC1	-1	-1.4	4.4	-0.6	0.77	1.1	-6%
COc1ccccc1NS(=O)(=O)c1cccc(NS(=O)(=O)c2ccc(Cl)c(C(=O)O)c2)c1	-6	1.2	3.9	0.1	0.72	-0.5	4%
Cc1nn(-c2ccccc2)c(N2CCCC2)c1/C=N/NC(=O)C1CC1	-5	-2.8	.	0.4	.	-1.1	6%
COc1ccc(OC)c(/C=C/C(=O)OCC(=O)c2c(N)n(C)c(=O)n(C)c2=O)c1	34	15	-289	0.6	0.72	-1.6	-4%
Cc1cccc(-c2nsc(SCC(=O)Nc3cc(C)on3)n2)c1	2	0.8	3.9	-1.1	0.71	0.3	-3%
O=C(Nc1cccc(NC(=O)c2sc3ccccc3c2Cl)c1)c1ccco1	29	-1.3	-5.9	-1.5	0.73	-0.6	25%
CC(C)(C)n1nc2c(c1NC(=O)c1cc(Cl)ccc1[N+](=O)[O-])CS(=O)(=O)C2	1	2.2	7.1	1.5	0.7	0.3	-5%
CCOc1ccc(-n2c(=O)c3c4c(sc3n(CC(=O)NCC3CCCO3)c2=O)CCCC4)cc1 (stereo unspecified)	-2	1.2	2.0	0.1	0.69	-0.4	14%

Going on with the list.
canonical_smiles	B2AR ag	HNF4A DNA FP	UCH37 DUB inh	Bfl-1 A1 inh	E coli growth	LANA-H2B inh	Vif TR-FRET
O=C(Oc1cc(-c2ccccc2)no1)c1cccc(C(F)(F)F)c1	12	-4.0	3.8	-0.6	0.79	-1.7	12%
CCOC(=O)c1sc(NC(=O)CSc2nc(-c3ccco3)cc(C(F)(F)F)n2)c(C#N)c1C	-3	2.9	-3.7	0.9	0.7	3.1	4%&-6%
CCOC(=O)c1c(-c2ccc(C)cc2)csc1/N=C/N(C)C	2	-0.1	.	0.9	.	-0.6	.
CCC(=O)N1CCc2cc(OC)c(OC)cc2C1COc1ccc(F)cc1 (stereo unspecified)	-17	0.1	-0.2	-0.7	0.61	-1.5	-9%
Cc1ccc(C(=O)Nc2ccccc2NC(=O)c2ccc(C)o2)o1	-6	1.9	2.7	0.3	0.69	-4.6	6%
O=C(CCc1c[nH]c2ccccc12)OCc1ccc(Br)cc1	7	-1.6	-0.8	-0.3	0.66	1.8	.
COc1ccc2cc(C3CC(c4ccco4)=NN3S(C)(=O)=O)c(Cl)nc2c1 (stereo unspecified)	-4	1.9	2.6	0.1	0.73	1.2	.
CN(Cc1ccccc1)S(=O)(=O)c1ccc2c(c1)CCC(=O)N2	-1	1.1	-2.1	-0.1	0.65	6.7	.
O=C(CSCc1c(F)cccc1Cl)NCc1ccco1	-7	3.6	2.0	0.2	0.7	-7.8	-6%
Cc1ccc(NC(=O)Nc2ccc3c(c2)nc(C)n3C)cc1	-12	1.6	2.2	-6.3	0.68	1.6	67%
N=C1/C(=C\c2ccc(Br)o2)C(=O)N=C2SC(CC(=O)N3CCCCC3)=NN12	2	-23	9.6	0.4	0.71	1.6	.
CN(C(=O)Nc1cccc([N+](=O)[O-])c1)c1ccccc1	-8	9.8	.	.	.	.	-5%
CC(C)(C)N(Cc1ccccc1)C(=O)COC(=O)Cn1cnc2ccccc2c1=O	-1	3.7	0.9	0.3	0.68	-0.5	-6%
CCSc1nc(N2CCCCC2)c2c(c1C#N)CCCC2	5	-6.7	3.4	0.5	0.66	-1.0	-7%
COC(=O)c1ccc(/C=C2/SC(=S)N(CCCC(=O)Nc3ccccn3)C2=O)cc1	-1	7.3	6.6	-2.2	0.71	0.4	20%

Sorted by value in B2AR ag (rising): 3 from the list above
structure | B2AR ag
O=C(CSCc1c(F)cccc1Cl)NCc1ccco1 | -7
Cc1ccc(C(=O)Nc2ccccc2NC(=O)c2ccc(C)o2)o1 | -6
CC(C)(C)N(Cc1ccccc1)C(=O)COC(=O)Cn1cnc2ccccc2c1=O | -1

(continued)
canonical_smiles	B2AR ag	HNF4A DNA FP	UCH37 DUB inh	Bfl-1 A1 inh	E coli growth	LANA-H2B inh	Vif TR-FRET
O=C(Cn1nc(-c2ccccc2)c2ccccc2c1=O)NN1CCOCC1	-6	5.9	5.6	0.1	0.7	1.1	.
Nn1c(SCC(=O)NC2CCCCC2)nnc1-c1ccccc1	-6	1.0	1.1	0.1	0.75	4.6	4%
Cc1ccc(C(=O)OCC(=O)N2CC(C)OC(C)C2)cc1 (stereo unspecified)	-6	-0.8	3.6	0.5	0.7	5.5	.
CN(C)S(=O)(=O)c1ccc(C(=O)NCC(c2cccs2)N2CCOCC2)cc1 (stereo unspecified)	-3	-1.2	-1.1	1.0	0.65	0.8	-2%
CN(CC(=O)Nc1ccc(Cl)c(C(F)(F)F)c1)C(=O)c1ccc(OCC2CCCO2)cc1 (stereo unspecified)	-8	-1.6	0.9	0.9	0.61	-12	2%
CCOC(=O)c1cnn(-c2cc(C)cc(C)c2)c1N	0	-1.8	3.5	-0.1	0.71	3.2	2%
CC(C)NC(=S)N1CCN(C(c2ccccc2)c2ccccc2)CC1	3	0.3	4.9	0.0	0.72	-2.5	21%
CS(=O)(=O)N(CC(=O)NCCSC1CCCCC1)c1ccc2c(c1)OCO2	-7	-1.9	1.2	-0.6	0.67	2.6	2%
O=C(COC(=O)c1ccc(F)c(S(=O)(=O)N2CCOCC2)c1)NC1CC1	1	2.9	2.6	1.5	0.68	3.0	-7%
O=S(=O)(c1cccc2nsnc12)N1CCN(c2ccccc2F)CC1	7	1.2	0.2	-0.2	0.71	1.1	?
C(CNC1C2CC3CC(C2)CC1C3)CN1CCOCC1 (stereo unspecified)	-4	4.6	2.3	0.4	0.63	-1.9	17%
Cc1cc(C(F)(F)F)nn1CC(=O)NNC(=S)NCC(C)C	2	0.3	-0.2	-0.5	0.65	-1.8	0%
Cc1ccc(S(=O)(=O)N(CCCc2c(C)nc[nH]c2=O)c2ccccc2)cc1	-2	0.2	0.4	.	0.66	.	-4%
COc1ccc(OC)c(NC(=O)CSc2ccc(-c3ccco3)nn2)c1	-1	-6.3	3.3	1.1	0.73	0.0	4%
CCC(=O)Nc1sc2c(c1C(N)=O)CCC2	-2	-1.1	-2.6	-0.2	0.7	-1.4	6%

(continued)
canonical_smiles	B2AR ag	HNF4A DNA FP	UCH37 DUB inh	Bfl-1 A1 inh	E coli growth	LANA-H2B inh	Vif TR-FRET
O=C(NCC1CCCO1)c1ccc2c(c1)N(Cc1ccccc1)CCS2 (stereo unspecified)	-6	0.9	i	-1.2	0.67	0.9	-1%
Cc1cc2nnc(SCC(=O)NCc3cccs3)n2c(N)n1	6	4.7	6.2	0.4	0.63	-2.7	8%
CNC(=O)c1nc[nH]c1C(=O)NC	7	-1.1	2.6	-0.4	0.71	2.3	?
CCc1cc2c3c([nH]c2cc1S(=O)(=O)NCCCOC)CC(C)(C)CC3=O	3	1.6	6.4	0.7	0.68	-3.5	-5%
Cc1ccc(C(=O)O)cc1NC(=O)c1cccs1	9	-0.9	-0.3	0.3	0.71	-1.4	12%
Cc1nc2cc(NC(=O)CCS(=O)(=O)c3ccccc3)ccc2s1	7	0.4	2.6	-0.2	0.69	0.4	.
O=C(Nc1ccc(N2CCCC2)cc1)c1cccc(F)c1	30	4.8	1.6	-3.4	0.67	1.1	-2%
COc1cccc(NC(=O)c2csc3c2CCCC3)c1	-7	3.3	5.0	0.6	0.65	-0.1	33%
CCn1cc(CN2CCC(Oc3ccc(C(=O)N4CCCCC4)cc3)CC2)cn1	2	4.9	1.0	-0.8	0.69	2.7	.
Cn1cc(Br)c(C(=O)Nc2c(F)c(F)c(F)c(F)c2F)n1	2	-0.9	0.2	0.2	0.72	-1.4	.
Cc1ccc(-n2c(C)nc3oc4ccccc4c(=O)c3c2=O)cc1	1	-21	0.8	-0.5	0.66	-1.6	12%
CN(CC(=O)NC(=O)NCc1ccccc1)Cc1ccc(Cl)cc1	-3	-0.2	4.3	1.3	.	.	.
CCC(=O)OCCNc1cc(Sc2nccn2C)c2nonc2c1[N+](=O)[O-]	83*	0.1	11	-0.6	0.65	-4.4	-5%
Cc1cc(C)nc(NC2=NCC(=O)N2CCc2c[nH]c3ccccc23)n1	9	5.5	-15	-0.5	0.75	-3.7	0%
CC(Cc1ccc(O)c(O)c1)C(C)Cc1ccc(O)c(O)c1 (stereo unspecified)	.	.	4.5	1.5	0.65	-2.0	.
COc1ccc(S(=O)(=O)N2CCOCC2)cc1NC(=O)C1CCN(S(=O)(=O)c2ccc(Cl)cc2)CC1	14	1.8	-1.9	.	0.68	.	.
COc1cccc(C(=O)N2CCN(c3ccc(N4CCOCC4)nn3)CC2)c1	-1	2.1	-206	-0.7	0.66	.	-1%
